SARS PLP yeast: SARS-CoV PLP inhibition in yeast | Potency, µM (series often up to 32.9 µM), for inactives: top-dose activity, positive = growth rescue | 330,000 compounds, 0.19% hits | S. cerevisiae expressing SARS-CoV PLpro, growth rescue; control for the full effect not named in the record; active means well fitted rising curve with a large enough effect; inconclusive means small, poorly fitted or top-dose-only effect; inactive means no such curve, though single readings can be large or run the other way; note: 0% is about no effect; nearly all actives have a fitted effect of over 55% in size; growth read by luminescence after 48 h
NS1 inh: blocks influenza NS1 protein function | S. cerevisiae slowed by influenza A NS1, growth recovery by OD600 | 270,000 compounds, 0.4% hits | Potency, µM (series often up to 46.1 µM), for the others: top-dose activity, positive = more growth; active means well fitted rising curve with a large enough effect; inconclusive means small, poorly fitted or top-dose-only effect; inactive means no such curve, though single readings can be large or run the other way; note: nearly all actives have a fitted effect of over 50% in size
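A cell-based growth assay was used: compounds that relieve NS1-induced slow growth of budding yeast raise OD600. Assay medium was yeast nitrogen base with ammonium sulphate and -URA supplement, pH 6.0, with 2% galactose.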
Cruzain inh Det: inhibitors of Trypanosoma cruzi cruzain with detergent | P25779 | purified cruzain, Z-FR-AMC fluorescence, 0.01% Triton | Potency, µM, without a hit: max response, negative = inhibition, hits mostly inhibitors | 200,000 compounds, 0.43% hits;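 note: plate controls were neutral wells for no effect and buffer without enzyme for full effect; nearly all actives have a fitted effect of over 40% in size; top concentration of the series not given in the record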
Target sequence (P25779 123-467 limits assumed): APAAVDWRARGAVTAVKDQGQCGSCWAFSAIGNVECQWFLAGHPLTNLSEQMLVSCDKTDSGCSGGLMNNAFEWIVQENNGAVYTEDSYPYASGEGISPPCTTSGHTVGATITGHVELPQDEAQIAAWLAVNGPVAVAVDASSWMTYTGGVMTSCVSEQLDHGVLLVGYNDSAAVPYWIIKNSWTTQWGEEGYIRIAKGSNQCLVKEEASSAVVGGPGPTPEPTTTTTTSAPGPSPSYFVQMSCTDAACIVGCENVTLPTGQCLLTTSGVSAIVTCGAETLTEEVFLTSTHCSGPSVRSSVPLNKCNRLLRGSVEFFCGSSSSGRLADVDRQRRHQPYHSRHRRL
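15 min RT preincubation of 1.5 nM cruzain with compound, then 2 uM Z-FR-AMC added; kinetic AMC fluorescence, 60 s delta. Triton X-100 0.01%, pH 5.5.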
2A StopGo: lowers the luciferase signal of an FMDV 2A StopGo reporter | Potency, µM (titrated, usually from 57.9 µM), for inactives: at the highest dose signal change, negative = less light | human cells with a luciferase reporter of 2A StopGo recoding; control for the full effect not named in the record | 410,000 compounds, 1.2% hits; active = well fitted falling curve with a large enough effect; inconclusive = small, poorly fitted or top-dose-only effect; inactive = no such curve, though single readings can be large or run the other way; tested in HEK293T cells; note: % is set by controls: 0 for no effect and ±100 for the full control effect; nearly all actives have a fitted effect of over 45% in size; luciferase light after 4 h
Marburg entry inh: inhibitors of Marburg virus binding or cell entry; Marburg virus pseudotyped entry inhibition, cell reporter; control for the full effect not named in the record; about a third of the inactives were read at about 46 µM; Potency, µM (doses to about 37.8 µM), inactives show at the top dose activity change, negative = inhibition, usual class: inhibitors; 300,000 compounds, 1.8% hits; AID 540276; active = well fitted inhibition curve with a large enough effect; inconclusive = small, poorly fitted or top-dose-only effect, or effect the other way; inactive = flat fitted curve, though single readings scatter; tested in HEK293 cells; about a fifth of its hits are not listed in these tables; note: % is set by controls: 0 for no effect and ±100 for the full control effect; luciferase read-out
Lassa entry inh: inhibitors of Lassa virus binding or cell entry; 300,000 compounds, 1.2% hits; Lassa virus pseudotype entry inhibition, cell reporter; control for the full effect not named in the record; AID 540256; Potency, µM (top dose mostly 37.9 µM), without a hit: top-dose activity change, negative = inhibition, actives largely listed as inhibitors; active means well fitted inhibition curve with a large enough effect; inconclusive means small, poorly fitted or top-dose-only effect, or effect the other way; inactive means flat fitted curve, though single readings scatter; tested in HEK293 cells; note: % is set by controls: 0 for no effect and ±100 for the full control effect; nearly all actives have a fitted effect of over 50% in size; luciferase read-out
RE007 growth inh: less growth of the S. pombe RE007 Vpr strain; S. pombe RE007 Vpr strain, BacTiter-Glo ATP luminescence, 24 h; control for the full effect not named in the record; Potency, µM (doses to about 92.2 µM), without a hit: at the highest dose activity change, negative = less growth; 360,000 compounds, 0.21% hits; active = well fitted falling curve with a large enough effect; inconclusive = small, poorly fitted or top-dose-only effect; inactive = no such curve, though single readings can be large or run the other way;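 note: % is set by controls: 0 for no effect and ±100 for the full control effect; nearly all actives have a fitted effect of over 50% in size; the assay follows cell death caused by Vpr and the record does not say whether a fall means rescue or toxicity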
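Fission yeast strain RE007, carrying one chromosomally integrated HIV-1 vpr copy, was seeded at OD 0.01 in PMG+AL medium with 23 nL pinned compound. After 24 h at 30 °C and 99% humidity, viability was read by BacTiter-Glo luminescence.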
Cruzain noTriton: inhibitors of Trypanosoma cruzi cruzain without detergent | Potency, µM, without a hit: max response, negative = inhibition, hits mostly inhibitors | purified cruzain, Z-FR-AMC fluorescence, no detergent | 200,000 compounds, 2.3% hits;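 note: plate controls were enzyme without inhibitor for no effect and buffer without enzyme for full effect; nearly all actives have a fitted effect of over 40% in size; top concentration of the series not given in the record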
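Purified cruzain at 1.5 nM, pre-incubated 15 min with compound at room temperature in 100 mM sodium acetate pH 5.5, 5 mM DTT, 0.00005% Triton X-100. Reaction started with 2 uM Z-FR-AMC; AMC fluorescence increase over 60 s gives rate.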
The depositor's hits bear a star; ? = inconclusive; / = no result given; & = joins results of further samples; [ ] = another dose, or the depositor's remark. Unless noted, calls come from the whole dose curve; as a rule, active = well fitted curve in the direction sought with a large enough effect; inconclusive = small, poorly fitted or top-dose-only effect, or another doubt; inactive = no such curve, though single readings can be large; an effect the other way counts as inactive or inconclusive. Potency is the fitted concentration of half-maximal effect.

SMILES | SARS PLP yeast | NS1 inh | Cruzain inh Det | 2A StopGo | Marburg entry inh | Lassa entry inh | RE007 growth inh | Cruzain noTriton
CC1CCC(C(=O)NC(C(=O)N2CCN(c3ccccn3)CC2)C(C)C)CC1 (stereo not drawn) | 12% | -2% | 5.6% | -9% | -1% | -4% | -3% | -7%
CCN(CC)c1nn2c(=O)c(C(=O)NCCc3ccccc3C)cnc2s1 | / | / | 8.7% | -20% | / | 3%[46.1 µM] | / | 5%
O=C(CCCOc1ccc(Cl)cc1Cl)N/N=C/c1ccc(Cl)cc1 | 9% | -8% | -15% | -3% | ? | ? | -6% | -1%
O=C(c1ccc(C(F)(F)F)cc1)C1CCCN(Cc2cccn2-c2ncccn2)C1 (stereo not drawn) | 1% | 1% | / | ? | ? | ? | -16% | /
CCCS(=O)(=O)c1nc(S(=O)(=O)c2ccc(C)cc2)c(N2CCC3(CC2)OCCO3)s1 | -2% | -15% | / | 9% | / | / | 10% | /
COc1ccc(N2CC(C(=O)Nc3ccc(S(=O)(=O)N4CCOCC4)cc3)CC2=O)cc1 (stereo not drawn) | 4% | / | / | -9% | 8%[46.1 µM] | 18%[46.1 µM] | 2% | /
CC1NC(=O)NC1CCCCC(=O)O (stereo not drawn) | 5% | 2% | 1.8% | -14% | 1% | 3% | -6% | -9%
COC(=O)N/N=C(\C)c1ccccc1Br | -6% | 4% | 5.3% | 2% | -1%[46.1 µM] | -2% | 6% | 3%
COC(=O)CN(C(=O)CSc1nnc(-c2cccc(OC)c2)o1)c1ccc(OC)cc1 | 0% | -11% | -1.8% | ? | 12%&12% | -13% | -2% | 5%
CC(C)(C)NC(=O)CN(Cc1ccccc1)S(=O)(=O)c1ccccc1 | -9% | -15% | / | -23% | -15% | 13% | 3% | /
CCOC(=O)c1c(-c2ccc(Br)cc2)csc1NC(=O)c1ccc(C(C)(C)C)cc1 | / | / | 0.5% | -10% | / | -27%[46.1 µM] | / | -7%
COc1cc(NC(=O)CN2C(=O)COc3ccc(S(=O)(=O)N4CCCC4)cc32)cc(OC)c1 | -2% | 1% | / | -15% | -22%[46.1 µM] | -21%[46.1 µM] | 10% | /
CCN1C(=O)/C(=C\N2CCN(C)CC2)SC1=S | 7% | 7% | -4.1% | -21% | -4% | 15% | 12% | -12%
CCOC(=O)c1cnn(Cc2ccccc2Cl)c1N | -18% | -66% | -1.2% | 6% | 0% | 0% | -4% | 3%
CCOc1ccccc1C(=O)Nc1cc(C(=O)NCCc2ccccc2)ccc1Cl | -4% | 20% | 1.2% | / | 5% | -16% | -11% | 0%
Cc1ccc(S(=O)(=O)N2CCCC2C(=O)NCc2ccco2)cc1 (stereo not drawn) | -3% | -36% | 0.7% | / | 17% | -15% | -7% | 8%
Cc1cccc(C)c1NC(=O)CN(C)CC(=O)Nc1ccccc1Oc1ccccc1 | 1% | / | / | -25% | ? | ? | -5% | /
FC(F)(F)c1cc(C(F)(F)F)c2ccc(N3CCOCC3)nc2n1 | -2% | 2% | / | -7% | -14%[46.1 µM] | 13%[46.1 µM] | -6% | /
c1ccc(-c2nn3c(-c4ccco4)nnc3s2)nc1 | -7% | -23% | -1.3% | 0% | 18% | 3% | -17% | -5%
Clc1cccc(Cl)c1CO/N=C/c1cccs1 | 0% | -2% | / | -11% | ? | -4% | 12% | /
CC1(C)CCC(=O)N(c2ccccc2)C1=O | 1% | 17% | -2.3% | -6% | 12% | ? | -7% | -5%
O=C(N/N=C/C=C/c1ccccc1)c1cccc(Br)c1 | -7% | -23% | -8.4% | 18% | ? | 17% | 1% | 7%
COc1cc(C(=O)Nc2cc(C)ccc2OCc2cc(=O)n3c(C)csc3n2)cc(OC)c1OC | / | / | 1.4% | 3% | / | 9%[46.1 µM] | / | -3%
COc1cc(SC)ccc1C(=O)Nc1ccccn1 | -14% | -76% | / | -56% | ? | ? | -19% | /
Cc1ccc2nc(N3CC(C)OC(C)C3)nc(-c3ccccc3)c2c1 (stereo not drawn) | -3% | -2% | / | -3% | / | / | 8% | /
(more compounds)
SMILES | SARS PLP yeast | NS1 inh | Cruzain inh Det | 2A StopGo | Marburg entry inh | Lassa entry inh | RE007 growth inh | Cruzain noTriton
O=C(Nc1nc2cc3c(cc2s1)OCCO3)c1ccc([N+](=O)[O-])o1 | 0% | -3% | / | -23% | 14%[46.1 µM] | ? | 4% | /
Cc1ccc(OCC(=O)N2CCc3ccccc3C2)c(Br)c1 | -5% | -1% | / | 51%[activator] | / | / | -12% | /
COc1ccc(Cl)cc1NC(=O)C/C(C)=N/NC(=O)c1ccccc1Cl | -1% | 6% | / | -6% | / | / | -18% | /
O=C(Cn1ncc2c3ccccc3n(Cc3ccccc3F)c2c1=O)N1CCCCC1 | / | / | -7.3% | -11% | 5%[46.1 µM] | -22%[46.1 µM] | / | ?
Cc1ccc(N)c([N+](=O)[O-])c1 | -1% | / | -0.6% | 0% | / | / | -7% | 0%
COCCn1c(-c2ccccc2)nc2oc3ccccc3c(=O)c2c1=O | -3% | -47% | 1.0% | 11% | -28% | -11% | 0% | -3%
O=C(N1CCN(Cc2ccc3c(c2)OCO3)CC1)C(Cl)(Cl)Cl | 1% | -13% | / | -13% | -33% | 3% | 9% | /
COc1ccc(-c2cc(C(F)(F)F)nc(SCCC(=O)Nc3cc(C)ccc3O)n2)cc1 | / | / | -7.4% | ? | ? | 1%[46.1 µM] | / | -10%
Cc1ccc(-n2nnnc2SCC(=O)c2ccc3c(c2)NC(=O)CO3)c(C)c1 | 5% | -3% | -4.2% | -27% | 5% | -18% | 12% | 0%
O=C(c1ccco1)N1CCN(C(=S)NC2CC3CCC2C3)CC1 (stereo not drawn) | -4% | / | / | -15% | -17%[46.1 µM] | 0%[46.1 µM] | 8% | /
Cc1ccc(S(=O)(=O)N(Cc2n[nH]c(=S)n2-c2ccccc2)c2cccc(Cl)c2)cc1 | -1% | 11% | / | -7% | 5%[46.1 µM] | 6%[46.1 µM] | 3% | /
O=c1c2[nH]c3ccc(Cl)cc3c2ncn1Cc1ccccn1 | 6% | 16% | 1.2% | -19% | ? | 14% | -4% | 11%
Nc1nc(C2C(=O)CCCC2=O)cs1 | 1% | 6% | -1.7% | 11% | 18% | 12% | 5% | -18%
C/C(=N\NC(=O)C1CCCC1)c1ccc(Cl)cc1Cl | -5% | 4% | / | -1% | 3%[46.1 µM] | -14%[46.1 µM] | -15% | /
O=C(Nc1nc2ccccc2n1CCN1CCOCC1)c1cn(-c2ccccc2)nc1-c1ccccc1 | ? | -78% | -12% | 0% | ? | ? | -26% | 2%
O=c1[nH]c(=O)n(-c2cccc(Cl)c2)c(O)c1C=NCCCN1CCOCC1 | 0% | -11% | 1.3% | -1% | 5% | 7% | 12% | -5%
CC(=O)c1ccc(-c2nc3ccccc3n2C)o1 | -9% | -18% | -27% | 36%[activator] | -1% | 14% | -15% | 16µM*
COc1ccc(N2C(=O)CN=C2Nc2cccc(C)c2C)cc1OC | 2% | -7% | 1.0% | 2% | 2% | 0% | -1% | -6%
CCOc1cc(-c2nc(-c3ccc(-c4ccc(C)cc4)nc3OC)no2)cc(OCC)c1OCC | / | / | -0.6% | 3% | -8%[46.1 µM] | 6%[46.1 µM] | / | -11%
Cc1c(C(=O)c2ccc(N(C)C)cc2)c2ccccn2c1CCC#N | 0% | / | / | -10% | ? | ? | 16% | /
CC(=O)Nc1ccc(OCC(=O)N2CCC(Cc3ccccc3)CC2)cc1 | -2% | / | / | ? | -6%[46.1 µM] | -2% | -12% | /
CC(C)N1CCc2c(sc(NC(=O)c3ccc(S(=O)(=O)N(C)CC4CCCO4)cc3)c2C(N)=O)C1 (stereo not drawn) | -2% | -4% | / | -4% | / | / | -7% | /
CCOC(=O)C1CCN(Cc2ccc(F)cc2F)CC1 | -11% | -4% | 0.6% | -9% | -14% | -1% | -9% | -2%
CCN(CC)C(=O)CSc1nnc(-c2ccc(F)cc2)n1N | 1% | -3% | 1.9% | -6% | -15% | 1% | 1% | 15%
CC1(c2ccco2)NC(=O)NC1=O (stereo not drawn) | 12% | 8% | 0.7% | -9% | 10% | -8% | 1% | 4%
Cc1nc2ccccc2n1/N=C/c1cccnc1 | 6% | -5% | -1.5% | 2% | -17% | 10% | -3% | -12%
COc1ccc(-c2noc(CSc3nc(-c4ccccc4)cc(=O)[nH]3)n2)cc1 | 4% | 10% | 4.7% | ? | -1% | 4% | 8% | -2%

Compounds shown so far containing a thiophene ring, fused or not (3):
SMILES | SARS PLP yeast | NS1 inh | Cruzain inh Det | 2A StopGo | Marburg entry inh | Lassa entry inh | RE007 growth inh | Cruzain noTriton
CCOC(=O)c1c(-c2ccc(Br)cc2)csc1NC(=O)c1ccc(C(C)(C)C)cc1 | / | / | 0.5% | -10% | / | -27%[46.1 µM] | / | -7%
Clc1cccc(Cl)c1CO/N=C/c1cccs1 | 0% | -2% | / | -11% | ? | -4% | 12% | /
CC(C)N1CCc2c(sc(NC(=O)c3ccc(S(=O)(=O)N(C)CC4CCCO4)cc3)c2C(N)=O)C1 (stereo not drawn) | -2% | -4% | / | -4% | / | / | -7% | /

2 entries from above in another layout.
Every second line gives: SARS PLP yeast | NS1 inh | Cruzain inh Det | 2A StopGo | Marburg entry inh | Lassa entry inh | RE007 growth inh | Cruzain noTriton
Cc1ccc(S(=O)(=O)N(Cc2n[nH]c(=S)n2-c2ccccc2)c2cccc(Cl)c2)cc1
  -1% | 11% | / | -7% | 5%[46.1 µM] | 6%[46.1 µM] | 3% | /
COc1ccc(N2C(=O)CN=C2Nc2cccc(C)c2C)cc1OC
  2% | -7% | 1.0% | 2% | 2% | 0% | -1% | -6%
